Calb FLC = C. albicans growth inhibition with fluconazole, primary screen, CaCi-2 strain, Alamar Blue fluorescence. C. albicans CaCi-2 (fluconazole-resistant clinical isolate) + fluconazole, 48 h. growth inhibition, % (concentration not given with the values). 0.57% of 300,000 active;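 active = most replicates above 75%; inconclusive = exactly half above 75%; inactive = most below 75%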;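 also: all wells also contain fluconazole at 8 µg/ml as a sub-toxic cotreatment; 0% = median of DMSO wells and 100% = median of geldanamycin control wells; wells of about 8 µL received 7.5 nL stock; the first replicate is given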
T cruzi inh = inhibitors of intracellular T. cruzi growth, primary screen, luminescence, NIH3T3 host cells; T. cruzi beta-gal in NIH3T3, 90 h; inhibition, % (no concentration beside the values); 1.4% of 300,000 active; AID 1885, 2009;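 active = mean inhibition across valid replicates above about 55%, limit read from the data; inconclusive = mean below that limit but half or more replicates reach it; inactive = mean below it, under half of replicates reach it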;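 also: signal also drops with host cell toxicity which is not excluded here; 0% = plate median of DMSO wells and 100% = zero luminescence signal; higher percent means less beta-gal luminescence so fewer parasites; stock transfer was 50 nL into about 50 µL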
Beta apoptosis = inhibitors of cytokine-induced beta cell apoptosis, primary screen, luminescence; INS-1E cytokine-induced death, ATP luminescence, 48 h; percent of positive-control rescue, neutral wells zero; protection from apoptosis, % (test concentration not listed); 0.8% of 300,000 active;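 active = all replicates at 75% or more, or half of them and the mean; inconclusive = half reach 75% but not the mean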;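 also: 0% = cytokine-treated negative control wells and 100% = positive control rescue; higher means more ATP so stronger rescue from cytokine killing; wells of about 40 µL received 100 nL stock; the first replicate is given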
LANA-H2A inh = blockers of LANA interaction with H2A/H2B – biochemical, FP readout, HTS, primary screen; cell-free LANA-H2A/H2B peptide, fluorescence polarization; inhibition, % (no concentration beside the values); Protein LANA1 (Human herpesvirus 8 type P (isolate GK18)), Q9QR71; 0.6% of 320,000 active; in the data active = inhibition mostly above about 10%, no sharp cut-off; inactive = mostly below about 6.7%;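 also: stock transfer was 7.5 nL into about 10 µL; 0% = median of vehicle wells and 100% = median of positive control wells; one replicate is shown; the record names a cut of 25% in any replicate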
MLL AF4-AF9 inh = inhibitors of AF4 peptide binding to AF9, primary screen, biochemical, AlphaScreen, biotin-AF4 peptide, FLAG-AF9, single point | inhibition, % at 10 µM | 0.47% of 350,000 active;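 active = every replicate reaching a set inhibition limit, whatever the replicate mean, cut at about 25% in these data; inconclusive = mean inhibition reaches that limit but some replicates miss it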;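 also: 0% = plate neutral control median and 100% = total signal loss; the record names both 10 and 1 µM as test concentration; the first replicate is given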
Target sequence (P42568 whole entry, looked up): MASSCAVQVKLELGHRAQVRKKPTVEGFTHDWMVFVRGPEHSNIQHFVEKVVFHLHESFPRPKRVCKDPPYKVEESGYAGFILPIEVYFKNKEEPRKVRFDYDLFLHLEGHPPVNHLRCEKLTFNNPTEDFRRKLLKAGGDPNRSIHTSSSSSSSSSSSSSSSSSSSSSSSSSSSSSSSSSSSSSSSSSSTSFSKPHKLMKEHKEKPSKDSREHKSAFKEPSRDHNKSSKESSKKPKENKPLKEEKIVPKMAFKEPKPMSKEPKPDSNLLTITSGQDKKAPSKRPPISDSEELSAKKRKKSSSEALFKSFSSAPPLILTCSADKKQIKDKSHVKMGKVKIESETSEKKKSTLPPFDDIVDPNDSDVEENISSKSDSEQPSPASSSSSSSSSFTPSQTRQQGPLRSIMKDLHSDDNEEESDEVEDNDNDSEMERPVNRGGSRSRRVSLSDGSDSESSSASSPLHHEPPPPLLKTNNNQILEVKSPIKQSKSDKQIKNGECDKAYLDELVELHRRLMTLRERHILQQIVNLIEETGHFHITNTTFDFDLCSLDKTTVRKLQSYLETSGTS
RanGTP-Impb inh = inhibitors of RanGTP-importin-beta interaction, primary screen, biochemical, FRET, CFP-Ran, YFP-importin-beta, homogeneous; 1.1% of 300,000 active; Ran GTPase (GTP-bound) - importin-beta complex; inhibition, % (concentration not given with the values); cell-free CFP-Ran/YFP-importin-beta FRET ratio; AID 2216, 2009;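 active = most replicates above 15%; inconclusive = exactly half above 15%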;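 also: 0% = DMSO wells and 100% = Ran loaded with GDP instead of GTP; wells of about 40 µL received 100 nL stock; the first replicate is given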
Vif A3G = inhibitors of Vif binding to APOBEC3G peptide, primary screen, biochemical, TR-FRET, GST-Vif 1-94, biotin-A3G peptide, dose response retest (AID 1117319); 0.57% of 260,000 active; TR-FRET GST-Vif / biotin-A3G peptide binding; higher % means a stronger effect; test concentration not given here; strong numbers were not always called active; inhibition, %; hits with a dose series show IC50 in µM;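 active = above the screen mean plus three standard deviations and confirmed in dose response; inconclusive = results disagree or hit not tested in dose response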;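 also: Vif residues 1-94 fused to GST binding biotinylated APOBEC3G peptide 110-148; 0% = full assay without inhibitor and 100% = GST in place of GST-Vif; retest series ran down from 100 µM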
A1 inh = caspase 3/7 activation in MEF A1-2A-BIM cells, primary screen, A1 inhibitor project, cell-based, luminescence, HTS | Caspase-Glo 3/7 luminescence, 3 h; percent of clofoctol response, vehicle zero | caspase activation, % (no concentration beside the values) | 0.066% of 330,000 active | AID 2462, 2010;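 active = over half of replicate activation scores above 10%, or exactly half above 10 with the replicate mean above 10; inconclusive = replicate mean below 10 yet half the replicates above 10; inactive = over half of replicates below 10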;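 also: wells of about 30 µL received 50 nL stock; many hits fall short of the cut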
The depositor's hits bear a star; ? = inconclusive; nt = not tested or not shown; & = joins results of further samples. Compounds as they come; 4.3% or so of the library scored in one or more.

The first nine entries, ahead of the listing:
SMILES	Calb FLC	T cruzi inh	Beta apoptosis	LANA-H2A inh	MLL AF4-AF9 inh	RanGTP-Impb inh	Vif A3G	A1 inh
COc1ccc(C2c3ccc4ccccc4c3Oc3ncn(CCO)c(=N)c32)cc1 (stereo not drawn)	27	5	3	0.8	nt	?	-15%	0.3
COc1ccc(N2CCN(C(C)C(=O)N3CC(C)OC(C)C3)CC2)cc1 (stereo not drawn)	1	nt	-14	1.8	1.0	nt	8%	-0.4
COC/C=C/C1=CC2=CC(=O)C(C)(OC(=O)c3cnc4ccccc4n3)C(=O)C2=CN1C1CCCC1 (stereo not drawn)	17	-6	-9	-1.8	nt	4.9	nt	0.1
Cc1ccc(CS(=O)(=O)c2nc3c(c(N(C)C)n2)CCCC3)cc1	8	7	-3	1.2	-1.8	-1.8	-8%	1.0
CCc1ccc(NC(=O)N(CCN2CCOCC2)C2CCN(C(C)=O)CC2)cc1	2	5	3	-6.2	nt	-1.1	8%	0.0
CNC(=O)c1cc2cc(OC)ccc2n1CCN(Cc1ccccc1)Cc1ccccc1	17	45	-8	0.0	nt	1.9	-7%	1.5
COc1ccc(CNC(=O)CN(Cc2ccc(Cl)cc2)C(=O)c2csnn2)cc1	11	4	0	3.4	-0.5	7.3	nt	0.3
COc1ccc(CCN2C(=O)N[C@@H](CCC(=O)O)C2=O)cc1	-16	-9	-1	2.8	0.4	3.9	-2%	0.1
Cc1cc(C)cc(NC(=O)CN2CCC(NC(=O)Cc3ccccc3)CC2)c1	-12	20	-5	4.4	-15	7.8	68%	0.5

Results, from the first entry:
SMILES	Calb FLC	T cruzi inh	Beta apoptosis	LANA-H2A inh	MLL AF4-AF9 inh	RanGTP-Impb inh	Vif A3G	A1 inh
COc1ccc(C2c3ccc4ccccc4c3Oc3ncn(CCO)c(=N)c32)cc1 (stereo not drawn)	27	5	3	0.8	nt	?	-15%	0.3
COc1ccc(N2CCN(C(C)C(=O)N3CC(C)OC(C)C3)CC2)cc1 (stereo not drawn)	1	nt	-14	1.8	1.0	nt	8%	-0.4
COC/C=C/C1=CC2=CC(=O)C(C)(OC(=O)c3cnc4ccccc4n3)C(=O)C2=CN1C1CCCC1 (stereo not drawn)	17	-6	-9	-1.8	nt	4.9	nt	0.1
Cc1ccc(CS(=O)(=O)c2nc3c(c(N(C)C)n2)CCCC3)cc1	8	7	-3	1.2	-1.8	-1.8	-8%	1.0
CCc1ccc(NC(=O)N(CCN2CCOCC2)C2CCN(C(C)=O)CC2)cc1	2	5	3	-6.2	nt	-1.1	8%	0.0
CNC(=O)c1cc2cc(OC)ccc2n1CCN(Cc1ccccc1)Cc1ccccc1	17	45	-8	0.0	nt	1.9	-7%	1.5
COc1ccc(CNC(=O)CN(Cc2ccc(Cl)cc2)C(=O)c2csnn2)cc1	11	4	0	3.4	-0.5	7.3	nt	0.3
COc1ccc(CCN2C(=O)N[C@@H](CCC(=O)O)C2=O)cc1	-16	-9	-1	2.8	0.4	3.9	-2%	0.1
Cc1cc(C)cc(NC(=O)CN2CCC(NC(=O)Cc3ccccc3)CC2)c1	-12	20	-5	4.4	-15	7.8	68%	0.5
O=c1c(-c2ccc(O)cc2)coc2cc(OC3OC(CO)C(O)C(O)C3O)ccc12 (stereo not drawn)	1	-13	-2	-1.1	nt	-0.5	25%	-1.6
FC(F)(F)c1cc(Oc2ccccc2)ncc1-c1nnc(-c2ccccc2Cl)o1	5	15	9	-5.1	nt	-1.2	5%	0.3
CN(C)C(/C=C/Nc1ccc(F)cc1F)=C(C#N)C#N	10	-6	2	1.6	nt	?	-3%	1.7
C[C@H](NC(=O)c1ccc(C(C)(C)C)cc1)C(=O)N1CCN(C/C=C/c2ccccc2)CC1	nt	nt	4	0.5	-3.1	nt	nt	0.2
COCCOC(=O)C1=C(C)N=c2s/c(=C\c3cccs3)c(=O)n2C1c1cccs1 (stereo not drawn)	4	0	2	-8.7	nt	-0.1	7%	-0.7
CCOc1cccc(-c2nnc(SCC(=O)Nc3ccc(OC)c(OC)c3)n2N)c1	-1	3	-2	4.0	nt	-2.6	11%	0.7
Cc1cc(/N=C/N(C)C)on1	0	-3	-5	15	-7.4	1.5	0%	1.4
CS(=O)(=O)c1ccc(C(=O)OCC(=O)NNC(=O)COc2ccc(Cl)cc2)cc1	1	4	4	-2.8	-3.7	-2.5	-5%	-1.2
Cc1cccc2[nH]c3c(N4CC=C(c5ccc(F)cc5)CC4)ncnc3c12	10	34	3	-0.2	0.4	1.9	10%	0.3
Cc1ccc(C(=O)Nc2nc(-c3ccc([N+](=O)[O-])cc3)cs2)o1	10	1	5	-0.1	-1.0	-3.3	11%	0.2
O=C(Cn1c(CC(=O)N2CCCC2)nc2ccccc21)NCc1ccccc1	7	-4	nt	4.2	nt	9.5	-2%	0.0
Clc1cccc(Cl)c1CO/N=C/c1c(-c2ccccc2)nc2n1CCS2	45	20	11	-1.3	nt	?	-5%	0.5
COc1ccc(OC)c(NC(=O)CNC(=O)Cn2cnc3sc(C)cc3c2=O)c1	?	5	-4	-2.3	3.8	5.7	-9%	-1.0
COCCCNc1nc2c(c(=O)n(Cc3ccc(OC)cc3)c(=O)n2C)n1C	1	-4	-2	-1.6	1.1	2.0	-5%	0.7
CC(OC(=O)c1ccc([N+](=O)[O-])s1)C(=O)Nc1ncc(Cl)cc1Cl (stereo not drawn)	8	22	7	0.3	nt	-2.0	?	-1.0
COc1ccc(C2/C(=C(/O)c3ccc4c(c3)CC(C)O4)C(=O)C(=O)N2CCCn2ccnc2)cc1 (stereo not drawn)	-4	-4	-4	-0.5	2.3	-2.2	-9%	2.4
Brc1ccc(-c2nc(N/N=C/c3cccnc3)c3ccccc3n2)cc1	9	9	70	-0.2	nt	-3.4	-2%	-6.0
CC(=O)Nc1ccc(NS(=O)(=O)c2ccc3c(c2)n(C)c(=O)n3C)cc1	1	-14	-5	1.7	-8.8	-4.9	nt	-0.2
O=C(CSc1nnc(CNc2ccc(F)cc2)n1Cc1ccccc1)NCc1ccco1	10	16	-2	1.3	nt	-0.8	2%	-0.6
CCc1nnc(NC(=O)CSc2ncc(-c3ccccc3)n2C)s1	86*	-7	1	3.2	nt	-2.0	-3%	-0.4
CC(=O)c1ccc(OCC(=O)N(CCC2=CCCCC2)c2c(N)n(Cc3ccccc3)c(=O)[nH]c2=O)cc1	-11	12	nt	3.2	1.1	-0.5	6%	-0.6
O=C(Nc1ccc(-c2nnco2)cc1)c1ccccc1	-5	4	4	-1.9	nt	0.1	-3%	-2.7
CC(=O)Nc1ccc(N=Cc2c(O)c(C(=O)Nc3ccccc3)cc3ccccc23)cc1	31	-14	12	-2.3	-4.0	4.4	2%	-0.4
O=C(CC(=O)Nc1cc(Cl)ccc1Cl)Nc1cc(Cl)ccc1Cl	-10	3	3	-2.6	1.3	3.0	-7%	-0.8
O=C(CCN1C(=O)COc2ccccc21)NCCCN1CCCC1	3	-14	-2	0.4	-0.2	2.1	7%	-0.9
Cc1c(CC(=O)NCCCC(=O)O)c(=O)oc2cc3c(cc12)CCC(C)(C)O3	-8	-11	-2	-5.6	-8.8	-0.7	-3%	0.8
Cn1c(=O)cc(SCC(=O)NCCN2CCN(c3ccccc3F)CC2)c2cc(Cl)ccc21	-9	12	2	0.0	nt	-1.4	0%&-4%	-0.3
C[C@H](NC(=O)c1nc[nH]c1C(=O)N[C@H](C)c1ccccc1)C(=O)OCc1ccccc1	20	-16	7	0.7	-0.8	4.8	nt	-0.1
COc1cccc(CN2CCN(Cc3ccc4c(c3)OCCO4)CC2CCO)c1 (stereo not drawn)	-1	22	-2	-1.4	4.1	0.3	-9%	0.0
O=C(CCc1nnc(Cc2c[nH]c3ccccc23)o1)NC1CCCC1	-8	10	-13	-2.7	11	0.7	5%	0.4
COc1ccc(OCc2nn3c(Cn4cnc5ccccc54)nnc3s2)cc1	-14	-18	10	-2.2	nt	3.1	4%	0.8
COCCn1c(SCC(=O)NCc2ccc3c(c2)OCO3)nc2ccccc2c1=O	-2	-6	-8	-1.0	-0.6	0.2	nt	-0.2
COc1ccccc1CNC(=O)COC(=O)/C=C/c1ccc2c(c1)OCO2	nt	nt	-1	-1.5	3.5	nt	nt	-1.3
CCN(CC(=O)NCc1ccncc1)S(=O)(=O)c1cc(Cl)ccc1Cl	-5	7	1	-3.6	-0.8	-0.2	nt	-0.2
NS(=O)(=O)c1ccc(NC(=O)c2ccc(S(=O)(=O)N3CCCCC3)cc2)cc1	nt	nt	4	-4.4	-49	nt	nt	-1.1
Cc1c(C(=O)N2CCCC2)sc(NC(=O)c2cccs2)c1C#N	-3	-9	-2	0.2	nt	?	26%	-1.0
CC(NC(=S)Nc1ccc(Cl)cc1)C(c1ccccc1)N1CCOCC1 (stereo not drawn)	-9	29	-1	0.2	0.4	8.1	4%	0.3
N=c1c(C(=O)NCc2ccco2)cc2c(=O)n3ccccc3nc2n1C1CCCC1	14	17	9	1.2	1.8	135*	nt	0.7
CCn1nc(NC(=O)C(C)C)c2cc3cccc(C)c3nc21	-13	-1	5	-2.0	-11	48*	-19%	-1.0
CCOc1ccc(-n2c(O)c(/C=N/Nc3nc(C)cc(C)n3)c3ccccc3c2=O)cc1	113*	nt	83*	-2.9	-1.1	nt	nt	-1.5
CCc1nnc2n1N=C(c1ccc(Cl)cc1Cl)CS2	-1	-13	-3	-0.8	1.6	0.0	nt	-0.3
O=C(CSc1nnc(-c2ccc(Cl)cc2Cl)n1C1CCCCC1)NC1CCS(=O)(=O)C1 (stereo not drawn)	0	8	0	2.6	nt	4.7	0%	0.7
OCCc1c[nH]c2cc(F)ccc12	-13	-12	-6	-3.2	nt	-1.6	nt	0.6
COc1ccc2c(CC(=O)OCc3nc4ccsc4c(=O)[nH]3)coc2c1	nt	nt	3	7.5	0.4	nt	-1%	-0.5
CCOc1ccc(NC(=O)CCC(=O)NNC(=O)c2ccco2)cc1	-10	7	-4	2.0	-2.7	-2.0	0%	0.7
CCn1c(CNc2ccc(F)cc2)nnc1SCCN1CCCCC1	-3	-1	-3	-0.2	nt	1.6	-1%	0.0
O=C(NCCCn1ccnc1)c1cc2ccccc2oc1=O	3	6	-6	3.0	nt	?	13%	1.5
Cc1ccc(S(=O)(=O)CCC(=O)OC(C)c2nnc(-c3cccs3)o2)cc1 (stereo not drawn)	nt	nt	-4	-1.0	-1.2	nt	nt	-0.4
CCc1nnc(NC(=O)c2cc3ccccc3oc2=O)s1	-1	-7	nt	2.1	nt	?	-13%	-1.7
